TRPML1 inh: qHTS for Inhibitors of the Human Mucolipin Transient Receptor Potential 1 (TRPML1); Mucolipin-1 (Homo sapiens), Q9GZU1; TRPML1-inducible cells, Ca2+ dye fluorescence, FDSS; stronger effect = lower value; inhibition of EC80 agonist-evoked calcium signal; activity change, negative = inhibition, % (concentration not given with the values); 390,000 tested, 0.02% active; in the data active means activity change below about -50%; inconclusive means about -30% to -50%; inactive means above about -30%;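 note: stimulus is agonist 54-4 at its EC80 concentration; % is set by controls: 0 for no effect and ±100 for the full control effect; compound concentration not given in the record; the text of the record puts the active cut at -80%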
Target sequence (Q9GZU1 whole entry, looked up): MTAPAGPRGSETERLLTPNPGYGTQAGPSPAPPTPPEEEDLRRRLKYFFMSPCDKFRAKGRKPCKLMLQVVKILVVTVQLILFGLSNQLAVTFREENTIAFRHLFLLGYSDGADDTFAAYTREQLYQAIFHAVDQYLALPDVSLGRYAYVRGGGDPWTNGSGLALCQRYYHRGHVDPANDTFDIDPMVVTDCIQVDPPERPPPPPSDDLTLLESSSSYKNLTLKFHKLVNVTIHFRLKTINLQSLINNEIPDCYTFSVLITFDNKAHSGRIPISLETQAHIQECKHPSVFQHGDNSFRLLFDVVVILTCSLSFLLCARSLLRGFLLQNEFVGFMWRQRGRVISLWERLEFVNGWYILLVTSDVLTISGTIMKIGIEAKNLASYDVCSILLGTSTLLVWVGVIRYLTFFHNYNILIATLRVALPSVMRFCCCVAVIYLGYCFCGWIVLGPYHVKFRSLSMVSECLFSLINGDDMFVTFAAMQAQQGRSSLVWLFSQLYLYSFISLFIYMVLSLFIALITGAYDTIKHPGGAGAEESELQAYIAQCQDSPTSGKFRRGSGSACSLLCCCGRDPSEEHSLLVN
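Tet-induced TRPML1-DL cells loaded with Ca8 no-wash calcium dye were read kinetically on FDSS. Compound addition was followed by EC80 agonist 54-4 (4 uM final); inhibition was read over 110 s.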
PINK1 expr mod: A Quantitative High throughput Screen to Identify Chemical Modulators of PINK1 Expression; PINK1 immunofluorescence, high-content cytometry, 24 h; Potency, µM (top dose mostly 76.6 µM), inactives show at the highest dose activation (PINK1 increase), hits mostly activators; 410,000 tested, 0.2% active; active = well fitted activation curve with a large enough effect; inconclusive = small, poorly fitted or top-dose-only effect; inactive = flat fitted curve, though single readings scatter; cell line not stated here;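 note: potency is the fitted concentration of half-maximal effect; % of control where 0% means no effect; nearly all actives have a fitted effect of over 65% in size; a mitochondrial uncoupler was the plate control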
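Compound titrations (5 concentrations, 24 h) on a stable cell line; DMSO and CCCP controls. Endpoint: fixed-cell PINK1 immunofluorescence with mitochondrial, cell and nuclear markers, scanned by microplate cytometer.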
TRPML1 ag: qHTS for Agonists of the Human Mucolipin Transient Receptor Potential 1 (TRPML1); Mucolipin-1 (Homo sapiens), Q9GZU1; TRPML1-expressing cells, Ca2+ dye fluorescence, FDSS; host cell line not named in the record; reference of the full effect not given here; activation, % (test concentration not listed); 410,000 tested, 0.12% active; AID 624414, 2012; in the data active = activation above about 50%; inconclusive = about 30% to 50%; inactive = below about 30%; note: 0% is about no effect; the text of the record puts the active cut at 80%
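Kinetic FDSS Ca2+ read in Tet-induced TRPML1-DL cells (ABD Ca8 dye plus quencher, 45-90 min RT loading): baseline, then compound, then 110 s agonist window; EC80 agonist 54-4 at 4uM final added afterwards for a 110 s antagonist window.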
Menin-MLL FL inh: qHTS Assay for Inhibitors Targeting the Menin-MLL Interaction in MLL Related Leukemias: Competition With Fluorescein Labeled MLL-derived Peptide; Fluorescence polarization, fluorescein-MLL peptide displacement from menin; 290,000 tested, under 10 active; AID 1766, 2009; FP activity change, % at 61.4 µM; inconclusive = falling polarisation curve, or a change in total fluorescence; inactive = total fluorescence flat and polarisation flat or rising; no compound was filed as active; the % refers to the polarisation; negative = inhibition;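 note: % of control where 0% means no effect; inhibitors lower the polarisation; unlabelled MLL peptide was the positive control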
TRPV1 PAM: HTS Assay for Compounds that Act as Potentiators of the Vanilloid Receptor 1; Transient receptor potential cation channel subfamily V member 1 (Homo sapiens), Q8NER1; TRPV1-expressing cells, Fluo-8 calcium influx, capsaicin EC20 potentiation; host cell line not named in the record; control for the full effect not named in the record; potentiation, % at 8.33 µM; 320,000 tested, 0.02% active; active means potentiation above 80%; inconclusive means 30% to 80%; inactive means below 30%; note: 0% is about no effect
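Cells expressing TRPV1 were dye-loaded with Fluo-8 and read kinetically: 10 s baseline, 3 min after compound (agonist portion), then 2 min after EC20 capsaicin (allosteric enhancer portion). Calcium-bound dye fluorescence at 480/520 nm.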
Sfp inh: qHTS Assay for Inhibitors of Bacillus subtilis Sfp phosphopantetheinyl transferase (PPTase). AID 1490, 2009. Biochemical Sfp PPTase activity, qHTS. 4'-phosphopantetheinyl transferase ffp (Bacillus subtilis), Q9F4F7. Potency, µM, for the others: max response, negative = inhibition, usual class: inhibitors. 310,000 tested, 3.5% active; active = well fitted inhibition curve with a large enough effect; inconclusive = small, poorly fitted or top-dose-only effect, or another doubt; inactive = no such curve, though single readings can be large or run the other way;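 note: the enzyme is Sfp with the accession as filed and its product quenches rhodamine fluorescence; potency is the fitted concentration of half-maximal effect; 0% = enzyme reaction without inhibitor and -100% = no enzyme wells; top concentration of the series not given in the record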
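Buffer: 50 mM Hepes-Na pH 7.6, 10 mM MgCl2, 0.01% Nonidet P-40, 0.01% BSA. Enzyme 15 nM, pre-exposed to compound 15 min; substrates then added and fluorescence change tracked over 30 min.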
ClpP mod: qHTS Assay for Activators of ClpP; ATP-dependent Clp protease proteolytic subunit (Bacillus subtilis (strain 168)), P80244; purified B. subtilis ClpP, FRET peptide cleavage, 20 min; Potency, µM (titrated, usually from 57.5 µM), inactives show at the highest dose activity change, negative = active; 340,000 tested, 1.9% active; AID 651965, 2013; active = well fitted falling curve with a large enough effect; inconclusive = small, poorly fitted or top-dose-only effect; inactive = no such curve, though single readings can be large or run the other way; note: potency is the fitted concentration of half-maximal effect; the source files actives as falling curves though it sought activators and does not explain the sign; nearly all actives have a fitted effect of over 65% in size; many hits overshoot -100%
Target sequence (P80244 whole entry, looked up): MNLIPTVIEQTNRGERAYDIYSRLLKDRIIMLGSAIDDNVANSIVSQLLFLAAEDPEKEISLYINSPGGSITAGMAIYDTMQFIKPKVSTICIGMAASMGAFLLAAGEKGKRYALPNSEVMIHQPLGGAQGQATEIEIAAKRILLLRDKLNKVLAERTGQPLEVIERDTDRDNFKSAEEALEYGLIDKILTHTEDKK
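ClpP 10 microg/mL final, pH 8 Tris/KCl buffer with BSA, glycerol, Tween-20; compound pinned in; FRET-FV substrate; RT 20 min; Ex320/Em430; ΔFRET vs ADEP 5.8 microM, DMSO, no enzyme.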
Starred values were filed as active, the others as inactive; ? = inconclusive; / = no result given; & = joins results of further samples; [ ] = dose if it differs, or a comment.

SMILES | TRPML1 inh | PINK1 expr mod | TRPML1 ag | Menin-MLL FL inh | TRPV1 PAM | Sfp inh | ClpP mod
CC(CN1CCN(Cc2ccccc2)CC1)OC(=O)c1ccco1 (configuration not stated) | 21.4 | 2.3% | -0.2 | 0.5 | -15.3 | -16.5% | /
CC(=O)c1cc2c(C)cc(=O)oc2cc1O | -9.9 | / | -0.4 | -0.1 | 4.8 | 4.3% | -4.7%
CC(C)OCCCNc1nc2c([nH]1)c(=O)n(C)c(=O)n2C | -10.1 | 3.0%[38.3 µM] | 1.2 | 4.9 | -3.5 | 11.6% | -3.5%
Cc1noc(C)c1-c1ccc(C(=O)Nc2cccc(NS(C)(=O)=O)c2)c2occc12 | / | 7.8% | -0.4 | / | / | / | -0.5%
CCN(c1ccccc1)S(=O)(=O)c1cccc(C(=O)NCC(c2ccc(OC)cc2)N2CCCCC2)c1 (configuration not stated) | -13.6 | 4.6% | -0.6 | / | / | / | -1.4%
Cc1cc(CN2CCCCC2C(=O)Nc2ccc(Oc3cccnc3)cc2)oc1C (configuration not stated) | -14.6 | 1.3% | 0.9 | / | -18.5 | -7.2% | 0.5%
Cc1ccc(-c2nc3ccccc3[nH]c2=O)cc1 | / | 6.5% | / | 3.3 | 15.0 | 9.5% | 3.1%
COc1ccc2[nH]c3c(NCCN4CCCCC4)ncnc3c2c1 | / | / | / | -1.1 | -8.1 | -19.8% | /
Brc1nc(-c2ccccc2)nc(-c2ccccc2)c1Br | 16.3 | -1.9% | 0.8 | / | / | / | -0.9%
COc1ccc(C(CNC(=O)c2ccc(N3CCCC3=O)cc2)N2CCCC2)cc1 (configuration not stated) | -10.5 | 0.6% | 2.1 | / | -1.1 | / | ?
CC(=O)c1ccc(S(=O)(=O)Nc2ccc(S(=O)(=O)N3CCCCC3)cc2)cc1 | -9.6 | -0.4% | 1.6 | / | / | / | 0.6%
O=C(Nc1ccccn1)c1ccc(C(=O)c2ccccc2)cc1 | -2.5 | -1.8% | 2.9 | / | -23.6 | / | /
Cc1ccc(OCCn2ncc3ccccc3c2=O)c(C)c1 | 17.5 | 2.0% | 1.2 | -7.6 | -14.3 | 4.1% | -0.7%
Oc1c(Cl)cc(Cl)cc1C=Nc1ccc(Br)cc1 | 6.4 | 1.0% | 0.6 | ? | 24.9 | 9.5% | -12.1%
CC12CCC(C(=O)NCCN3CCCCC3)(CC1=O)C2(C)C (configuration not stated) | 6.8 | 2.3%[38.3 µM] | 0.8 | -3.3 | 5.5 | 13.8% | -0.1%
CCOC(=O)N1CCN(CC(=O)Nc2ccc([N+](=O)[O-])cc2C(=O)Nc2ccccc2F)CC1 | 37.7 | 0.5% | -0.3 | 1.6 | 0.3 | 2.1% | -1.9%
COCCCn1c(SCC(=O)NC2CCCC2)nnc1-c1cccs1 | -7.8 | 0.0% | -0.2 | 2.4 | 3.8 | -2.3% | /
COc1ccccc1N1CCN(C(=O)CN(c2cc(C)cc(C)c2)S(C)(=O)=O)CC1 | -3.1 | / | -0.5 | -0.9 | 7.4 | 7.3% | -9.2%
Cc1ccc(C(=O)N2CCc3ccccc32)cc1C | -15.2 | -1.0% | 0.9 | / | / | / | -2.1%
COc1ccc(-n2c(Cc3cccn3C)nnc2SCC(=O)Nc2ccccc2C)cc1 | -12.7 | -2.7% | 4.0 | 6.2 | / | -7.9% | 0.4%
CCOC(=O)C(CC)n1cnc2c(cnn2-c2ccc(Cl)cc2)c1=O (configuration not stated) | 16.9 | 0.4% | -1.0 | -2.0 | -21.9 | -2.7% | -1.3%
Cn1c(SCC(=O)N2CCN(S(=O)(=O)c3ccccc3)CC2)nc2ccccc21 | -8.6 | -4.1%[38.3 µM] | -0.3 | 0.6 | -0.5 | -16.4% | -1.1%
O=C(c1cn(CC(=O)N2CCCC2)c2ccccc12)C1CCCCC1 | 2.0 | -2.6% | 2.1 | 3.8 | -11.8 | -9.8% | -2.4%
CCOc1ccc(C(=O)N2CCC3(CC2)NCCc2[nH]cnc23)cc1OCC | 29.2 | -1.5% | 0.6 | 1.7 | 1.1 | ? | -2.7%
O=C(c1cc([N+](=O)[O-])ccc1N1CCOCC1)N1CCN(c2ccc([N+](=O)[O-])cc2)CC1 | 1.2 | 2.5% | -0.5 | / | 3.6 | / | -7.2%
O=[N+]([O-])c1ccc(N2CCN(Cc3ccncc3)CC2)cc1 | 7.8 | -0.1% | -0.4 | 1.1 | 25.0 | -23.5% | 1.1%
O=C(CCCCCN1C(=O)CCC1=O)Nc1ncn[nH]1 | -9.7 | -0.1% | -0.1 | 4.6 | 27.1 | -11.1% | 0.3%
CCOC(=O)C1CCCN(C(=O)/C(=C/c2ccco2)NC(=O)c2ccccc2)C1 (configuration not stated) | -9.3 | 0.2% | 0.7 | 17.7 | 2.3 | ? | /
Cc1cccn2c(=O)c(C=Nc3ccccc3)c(NCCO)nc12 | 9.3 | / | 0.2 | -1.8 | -2.0 | -6.1% | 4.3%
Nc1ccc(-n2c(N)c(C(=O)NCc3ccc4c(c3)OCO4)c3nc4ccccc4nc32)cc1 | 4.4 | 3.7% | -0.1 | / | / | / | -15.6%
COc1ccc(/C=C/C(=O)N[C@@H](C)C(=O)O)cc1 | -10.7 | 0.7% | 0.1 | 4.9 | 2.1 | -0.5% | 0.6%
COc1ccc(C2c3[nH]c4ccccc4c3C[C@H]3C(=O)N(c4ccccc4C(=O)N4CCC[C@@H]4C(=O)O)C(=O)N23)cc1 (some centres not stated) | / | 1.7% | / | / | -0.4 | / | -3.2%
COc1ccc(N2CCN(C(=O)C(C)n3nc(C)c4sc5ccccc5c4c3=O)CC2)cc1 (configuration not stated) | 11.6 | 0.1% | -0.2 | / | / | / | -1.7%
OCC(O)[C@@H](O[C@H]1O[C@H](CO)[C@@H](O)[C@H](O)[C@H]1O)[C@H](O)[C@@H](O)CO (some centres not stated) | 22.1 | -0.5% | 0.2 | / | -4.9 | / | 1.5%
CN(CC(=O)Nc1cccc(F)c1)CC(=O)NC(c1ccccc1)c1ccccc1 | 1.4 | 0.2% | 3.4 | / | -8.1 | / | -2.7%
COc1ccc(C(=O)/C=C/c2cccnc2)c(OC)c1 | 66.8 | -0.9% | -0.7 | -5.7 | 3.4 | 9.7% | 1.8%
Cc1ccc2cccc(OCCOCCOc3ccccc3Br)c2n1 | -11.4 | -0.7% | -0.2 | 13.0 | 25.3 | -13.5% | 0.5%
Cc1cc(C(=O)N/N=C/c2ccc3c(c2)OCO3)c(C)o1 | 0.9 | 1.5% | -0.3 | -3.9 | -16.8 | -1.5% | /
CCOc1ccc(CNC(=O)CSc2c3c(nc4cc(Cl)ccc24)CCCC3)cc1 | 28.8 | 6.5% | 1.6 | / | / | / | 3.0%
CCOc1ccc(C(=O)N(CC(=O)Nc2cccc(C)c2C)CC2CCCO2)cc1OC (configuration not stated) | 0.8 | 3.0% | -0.3 | / | 0.6 | / | 4.1%
C=CCOC(=O)C1=C[C@H](C2CCCCC2)[C@@H](CCCO)[C@H](OCC)O1 | -4.5 | 4.3% | 0.9 | -1.0 | -12.7 | 1.2% | 1.4%
CC(C)N(Cc1ccccc1)C(=S)Nc1ccc(OC(F)F)cc1 | 32.3 | 1.4% | 2.0 | 7.9 | -2.5 | 21.4% | -2.1%
Nc1ncc(C(=O)O)c(-c2ccccc2)n1 | 5.9 | 1.9% | 1.3 | / | / | / | -8.6%
O=C(CN1C(=O)c2ccccc2C1=O)NC1CCCCCC1 | -3.0 | 1.9% | 1.1 | 0.6 | -2.5 | 24.6% | /
COC(C(=O)Nc1ccnn1C1CCN(Cc2nccs2)CC1)c1ccccc1 (configuration not stated) | 31.4 | -1.4% | 2.4 | 2.3 | -12.6 | 22.1% | 1.3%
COc1ccc(S(=O)(=O)N2CCCC2CNC(=O)C(=O)Nc2ccc(F)cc2)cc1 (configuration not stated) | -1.2 | 2.6% | -0.3 | / | 1.6 | / | /
Cc1cc(F)ccc1S(=O)(=O)Nc1ccccc1C(=O)NC1CCN(Cc2ccccc2)CC1 | 9.5 | 14.3% | 8.6 | / | 0.2 | / | -4.1%
Cc1cc(N)n(-c2ccc(C)c(C)c2)n1 | -0.8 | 4.6% | -1.0 | -0.1 | -3.5 | 7.0% | /
CC(=O)c1ccc(S(=O)(=O)N2CCC(Oc3ccc(-n4cnnn4)cc3)CC2)cc1 | 8.6&1.7 | 0.7%&-0.3% | -0.5&1.6 | / | 11.8 | 21.8% | 1.0%&-1.7%
Cc1cc(C)c2c(c1)cc(C)c1nnc(SCC(=O)N3CCCc4ccccc43)n12 | 0.4 | 2.2% | -0.5 | 1.6 | -14.6 | 3.9% | -5.0%
Cc1ccc(C(=O)Nc2ccc(S(=O)(=O)Nc3cnc4ccccc4n3)cc2)cc1 | 9.5 | 3.1% | 1.2 | 2.4 | 1.5 | 15.8% | /
CCc1nccn1CCC(=O)N1CCc2c([nH]c3ccccc23)C1CC(C)C (configuration not stated) | -1.8 | -1.8% | 0.1 | 2.1 | -4.6 | 13.0% | -10.6%

Bioassay records: PubChem BioAssay, National Center for Advancing Translational Sciences (NCATS)
